FGF22 binding = binders of human FGF22 protein, primary screen, FGF22 synaptogenesis inhibitor project, biophysical, thermal shift, single point. Fibroblast growth factor 22 (Homo sapiens), Q9HCT0. recombinant FGF22 thermal shift, SYPRO orange fluorescence; percent of sucrose octasulfate shift, DMSO zero. actives 1.5% (n = 340,000). calls only at 9.99 µM. AID 651658, 2012;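 active = melting point raised past a set limit in the mean and every replicate; inconclusive = no clear call; three in four hits are not shown here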
Target sequence (Q9HCT0 whole entry, looked up): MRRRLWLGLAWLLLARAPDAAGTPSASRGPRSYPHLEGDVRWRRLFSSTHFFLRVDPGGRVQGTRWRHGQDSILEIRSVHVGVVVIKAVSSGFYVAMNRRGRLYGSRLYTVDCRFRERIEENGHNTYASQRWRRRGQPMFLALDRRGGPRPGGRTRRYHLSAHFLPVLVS
RanGTP-Impb inh = inhibitors of RanGTP-importin-beta interaction, primary screen, biochemical, FRET, CFP-Ran, YFP-importin-beta, homogeneous; actives 1.1% (n = 300,000); inhibition, % (no concentration beside the values); cell-free CFP-Ran/YFP-importin-beta FRET ratio; Ran GTPase (GTP-bound) - importin-beta complex;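 active = most replicates above 15%; inconclusive = exactly half above 15%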;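 also: 0% = DMSO wells and 100% = Ran loaded with GDP instead of GTP; wells of about 40 µL received 100 nL stock; the first replicate is given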
ALR inh = inhibitors of human ALR sulfhydryl oxidase, primary screen, biochemical, H2O2 detection, HRP-luminol luminescence, single point. FAD-linked sulfhydryl oxidase ALR (Homo sapiens), P55789. purified ALR, DTT oxidation. inhibition, % (test concentration not listed). actives 3.8% (n = 290,000). AID 485317, 2010;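 active = mean and each replicate at 75% or more; inconclusive = only one of the two met; inactive = neither met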;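 also: stock transfer was 7.5 nL into about 7.5 µL; 0% = neutral wells and 100% = wells with inactivated enzyme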
Target sequence (P55789 whole entry, looked up): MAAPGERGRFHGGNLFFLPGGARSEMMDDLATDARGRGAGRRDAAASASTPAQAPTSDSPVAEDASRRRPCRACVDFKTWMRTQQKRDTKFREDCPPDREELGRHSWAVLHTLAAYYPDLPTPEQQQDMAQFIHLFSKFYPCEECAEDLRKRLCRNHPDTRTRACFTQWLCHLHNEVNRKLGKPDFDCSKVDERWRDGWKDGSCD
T cruzi repl = inhibitors of intracellular T. cruzi growth, primary screen, luminescence, NIH3T3 host cells; T. cruzi beta-gal in NIH3T3, 90 h; inhibition, % (no concentration beside the values); actives 1.4% (n = 300,000); AID 1885, 2009;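 active = mean inhibition across valid replicates above about 55%, limit read from the data; inconclusive = mean below that limit but half or more replicates reach it; inactive = mean below it, under half of replicates reach it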;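 also: signal also drops with host cell toxicity which is not excluded here; 0% = plate median of DMSO wells and 100% = zero luminescence signal; higher percent means less beta-gal luminescence so fewer parasites; stock transfer was 50 nL into about 50 µL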
AF4-AF9 inh = inhibitors of AF4 peptide binding to AF9, primary screen, biochemical, AlphaScreen, biotin-AF4 peptide, FLAG-AF9, single point; inhibition, % at 10 µM; actives 0.47% (n = 350,000);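 active = every replicate reaching a set inhibition limit, whatever the replicate mean, cut at about 25% in these data; inconclusive = mean inhibition reaches that limit but some replicates miss it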;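 also: 0% = plate neutral control median and 100% = total signal loss; the record names both 10 and 1 µM as test concentration; the first replicate is given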
Target sequence (P42568 whole entry, looked up): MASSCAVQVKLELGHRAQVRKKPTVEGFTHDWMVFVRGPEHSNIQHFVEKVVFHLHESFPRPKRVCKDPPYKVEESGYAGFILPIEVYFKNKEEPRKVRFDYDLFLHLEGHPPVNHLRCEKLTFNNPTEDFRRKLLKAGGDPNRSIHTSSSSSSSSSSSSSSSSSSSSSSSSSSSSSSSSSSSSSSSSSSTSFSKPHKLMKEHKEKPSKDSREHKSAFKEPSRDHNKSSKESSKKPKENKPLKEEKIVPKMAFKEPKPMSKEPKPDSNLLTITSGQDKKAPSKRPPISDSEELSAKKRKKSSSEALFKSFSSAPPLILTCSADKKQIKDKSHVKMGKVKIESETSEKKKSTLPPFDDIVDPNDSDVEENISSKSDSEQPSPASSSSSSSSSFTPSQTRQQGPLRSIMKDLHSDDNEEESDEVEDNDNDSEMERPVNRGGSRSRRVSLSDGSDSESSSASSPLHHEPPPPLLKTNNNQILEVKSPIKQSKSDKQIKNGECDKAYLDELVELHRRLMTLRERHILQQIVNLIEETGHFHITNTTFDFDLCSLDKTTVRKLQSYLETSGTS
Ecoli rRNA inh = reduced GFP signal of wild-type E. coli, primary screen, bacterial rRNA inhibitor project, GFP/RFP fluorescence, OD600, single point. E. coli WT GFP vs humanized-ribosome RFP mutants, 24 h; stronger effect = lower value; DMSO median 0, no signal -100. GFP signal change (wild-type ribosome), % (test concentration not listed). actives 1.6% (n = 350,000). AID 720706, 2013;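 active = significant combined selectivity score with lowered wild-type GFP, culture density cut under 30%, mutant RFP and density less affected; inactive = any of these conditions unmet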; also: one replicate is shown; some compounds called inactive have numbers as strong as hits
Beta apoptosis = inhibitors of cytokine-induced beta cell apoptosis, primary screen, luminescence; INS-1E cytokine-induced death, ATP luminescence, 48 h; percent of positive-control rescue, neutral wells zero; protection from apoptosis, % (concentration not given with the values); actives 0.8% (n = 300,000);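 active = all replicates at 75% or more, or half of them and the mean; inconclusive = half reach 75% but not the mean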;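 also: 0% = cytokine-treated negative control wells and 100% = positive control rescue; higher means more ATP so stronger rescue from cytokine killing; wells of about 40 µL received 100 nL stock; the first replicate is given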
Calb FLC = C. albicans growth inhibition with fluconazole, primary screen, CaCi-2 strain, Alamar Blue fluorescence | C. albicans CaCi-2 (fluconazole-resistant clinical isolate) + fluconazole, 48 h | growth inhibition, % (test concentration not listed) | actives 0.57% (n = 300,000) | AID 1979, 2009;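 active = most replicates above 75%; inconclusive = exactly half above 75%; inactive = most below 75%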;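 also: all wells also contain fluconazole at 8 µg/ml as a sub-toxic cotreatment; 0% = median of DMSO wells and 100% = median of geldanamycin control wells; wells of about 8 µL received 7.5 nL stock; the first replicate is given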
Ecoli rRNA inh OD600 = recorded beside Ecoli rRNA inh, whose call it bears; OD600 change, %; measured here: OD600 growth;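 optical density of the mix in the first replicate; 0 = DMSO median and -100 = no signal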
Ecoli rRNA inh RFP = further read-out of Ecoli rRNA inh, marked with its call; RFP signal change, %; measured here: RFP humanized mutant strains;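 first replicate; 0 = DMSO median and -100 = no signal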
* marks the source's active call; other numbers are inactive results; & = joins results of further samples. Only part of the results is shown; the hit share may differ from the screen's.

What do the screens show for `CCn1c(NC(=O)C2CCCCC2)nc2ccccc21`?
RanGTP-Impb inh: 2.7; ALR inh: -2.3; T cruzi repl: 2.9; Beta apoptosis: 20.2; Calb FLC: 21.3

What do the screens show for `O=C(Cc1cc(=O)[nH][nH]1)N/N=C/C(Cl)=C/c1ccccc1`?
FGF22 binding: inactive; RanGTP-Impb inh: -4.9&-2.5; ALR inh: -0.1&-4.1; T cruzi repl: 0.6&-13.9; AF4-AF9 inh: -4.2; Ecoli rRNA inh: 6.3; Beta apoptosis: 0.7&1.3; Calb FLC: inconclusive; Ecoli rRNA inh OD600: 16.2; Ecoli rRNA inh RFP: -0.7

What do the screens show for `O=C(Cc1ccccc1)N/N=C/c1ccc([N+](=O)[O-])s1`?
RanGTP-Impb inh: -1.0; ALR inh: -32.2; T cruzi repl: 45.6; Beta apoptosis: 88.2*; Calb FLC: 0.9

How did C[C@H](Cc1ccccc1)Nc1ncnc2c1ncn2[C@@H]1O[C@H](CO)[C@@H](O)[C@H]1O do in these assays?
FGF22 binding: inactive; ALR inh: -4.2; AF4-AF9 inh: 3.1; Ecoli rRNA inh: 9.5; Beta apoptosis: -0.5; Ecoli rRNA inh OD600: 10.9; Ecoli rRNA inh RFP: -2.4

How did C/C(=N\NC(=O)COc1ccccc1-c1ccccc1)c1cccnc1 do in these assays?
FGF22 binding: inactive; RanGTP-Impb inh: 1.7; ALR inh: -6.5; T cruzi repl: 1.5; AF4-AF9 inh: 5.3; Ecoli rRNA inh: -39.6*; Beta apoptosis: -1.0; Calb FLC: 9.1; Ecoli rRNA inh OD600: -15.0*; Ecoli rRNA inh RFP: -7.0*

Results for O=[N+]([O-])c1ccc(-c2csc(N3CCc4ccccc4C3)n2)cc1 ?
RanGTP-Impb inh: -1.3; ALR inh: -4.8; T cruzi repl: -29.6; Beta apoptosis: -7.1; Calb FLC: 26.7

Results for O=c1c2ccccc2nnn1CSc1nnc(-c2ccco2)o1 ?
RanGTP-Impb inh: 4.4; ALR inh: 5.1; T cruzi repl: -15.0; Beta apoptosis: 0.8; Calb FLC: -5.1

How did Cc1coc2c(C)c3oc(=O)c4c(c3cc12)CCCC4 do in these assays?
RanGTP-Impb inh: 0.4; ALR inh: 0.6; T cruzi repl: 15.5; AF4-AF9 inh: 2.1; Ecoli rRNA inh: 3.8; Beta apoptosis: 0.2; Calb FLC: 29.5; Ecoli rRNA inh OD600: -0.7; Ecoli rRNA inh RFP: -2.3

How did CCN1CCN(c2nc(-c3ccc(F)cc3)cc(=O)[nH]2)CC1 do in these assays?
FGF22 binding: inactive; RanGTP-Impb inh: -2.0; T cruzi repl: 5.3; AF4-AF9 inh: 2.3; Ecoli rRNA inh: 1.0; Beta apoptosis: -1.0; Calb FLC: 5.7; Ecoli rRNA inh OD600: 3.0; Ecoli rRNA inh RFP: -1.1

How did CC1=C(C(=O)NCc2ccccc2)C(c2cc(Br)cc(Br)c2OC(C)C)NC(=O)N1 (stereo not drawn) do in these assays?
RanGTP-Impb inh: 0.0; ALR inh: -8.6; T cruzi repl: 4.0; Beta apoptosis: 0.2; Calb FLC: 0.0

Results for Cc1cc(C)cc(NC(=O)CSCc2cnn(-c3ccccc3)c2-n2cccc2)c1 ?
RanGTP-Impb inh: 4.1; ALR inh: -4.8; T cruzi repl: -0.2; Beta apoptosis: -5.1; Calb FLC: 29.2

Results for COc1ccc(C2=NN(C(=O)C(O)c3ccccc3)C(O)(C(F)(F)F)C2)cc1 (stereo not drawn) ?
FGF22 binding: inactive; RanGTP-Impb inh: 0.3; ALR inh: -20.3; T cruzi repl: -10.6; AF4-AF9 inh: -0.4; Ecoli rRNA inh: -1.1; Beta apoptosis: -9.8; Calb FLC: -3.1; Ecoli rRNA inh OD600: -10.7; Ecoli rRNA inh RFP: 1.1

How did COc1ccc(-c2cc3ccc(OC)cc3cn2)cc1 do in these assays?
FGF22 binding: inactive; ALR inh: 40.7; AF4-AF9 inh: 0.8; Ecoli rRNA inh: -16.2; Beta apoptosis: -1.3; Ecoli rRNA inh OD600: -6.0; Ecoli rRNA inh RFP: -2.8

What do the screens show for `CC(=O)N1CCc2cc(S(=O)(=O)C(C)CC(=O)Nc3ccc(OC(F)(F)F)cc3)ccc21` (stereo not drawn)?
FGF22 binding: inactive; RanGTP-Impb inh: 6.1; ALR inh: -7.7; T cruzi repl: 2.8; AF4-AF9 inh: 0.5; Ecoli rRNA inh: 4.8; Beta apoptosis: 0.3; Calb FLC: 25.5; Ecoli rRNA inh OD600: 13.2; Ecoli rRNA inh RFP: -0.1

How did COc1ccc(C(CNC(=O)CN(C)S(=O)(=O)c2ccc(C)cc2)N2CCCC2)cc1 (stereo not drawn) do in these assays?
FGF22 binding: inactive; ALR inh: -1.6; AF4-AF9 inh: -4.1; Ecoli rRNA inh: 12.4; Beta apoptosis: -3.9; Ecoli rRNA inh OD600: 9.2; Ecoli rRNA inh RFP: 0.7

Results for CCCc1nc(SCC(=O)Nc2nccs2)c2ccccc2n1 ?
FGF22 binding: inactive; RanGTP-Impb inh: -0.4; ALR inh: 2.7; T cruzi repl: 4.0; AF4-AF9 inh: -1.5; Ecoli rRNA inh: 1.5; Beta apoptosis: -9.3; Calb FLC: 13.6; Ecoli rRNA inh OD600: 2.3; Ecoli rRNA inh RFP: -1.5

How did Cc1cccc(N2CCN(C(=O)C3CCC(=O)N(Cc4ccccc4F)C3)CC2)c1C (stereo not drawn) do in these assays?
FGF22 binding: inactive; RanGTP-Impb inh: 3.3; ALR inh: -8.2; T cruzi repl: 15.9; AF4-AF9 inh: 1.4; Ecoli rRNA inh: 9.2; Beta apoptosis: 1.3; Calb FLC: -8.4; Ecoli rRNA inh OD600: -18.6; Ecoli rRNA inh RFP: 2.9

Results for CCOc1ncccc1C(=O)NCCN1C(=O)S/C(=C/c2cccs2)C1=O ?
FGF22 binding: inactive; RanGTP-Impb inh: 1.1; ALR inh: -18.1; T cruzi repl: 2.4; AF4-AF9 inh: 1.3; Beta apoptosis: -0.5; Calb FLC: -4.8

How did O=C(NCc1ccccc1Cl)c1cc2ccccc2oc1=O do in these assays?
FGF22 binding: inactive; RanGTP-Impb inh: -0.9; ALR inh: -0.6; T cruzi repl: -17.1; AF4-AF9 inh: 1.5; Ecoli rRNA inh: 15.5; Calb FLC: 3.3; Ecoli rRNA inh OD600: 9.5; Ecoli rRNA inh RFP: 0.6

Results for O=C1CN(S(=O)(=O)c2ccc(F)cc2)CCN1 ?
FGF22 binding: inactive; ALR inh: -5.9; AF4-AF9 inh: 0.6; Ecoli rRNA inh: 27.1; Beta apoptosis: -12.1; Ecoli rRNA inh OD600: 13.3; Ecoli rRNA inh RFP: 1.8

What do the screens show for `NC(=O)c1ccsc1NC(=O)COC(=O)c1ccc(Cl)c(N)c1`?
FGF22 binding: inactive; RanGTP-Impb inh: -2.8; ALR inh: -1.8; T cruzi repl: -1.3; AF4-AF9 inh: 2.0; Ecoli rRNA inh: -12.6; Beta apoptosis: -10.1; Calb FLC: 10.5; Ecoli rRNA inh OD600: -18.2; Ecoli rRNA inh RFP: 3.2

How did COCCN(C(=O)COC(=O)C1CC1C)c1c(N)n(Cc2ccccc2)c(=O)[nH]c1=O (stereo not drawn) do in these assays?
FGF22 binding: inactive; RanGTP-Impb inh: 0.6; ALR inh: -2.3; T cruzi repl: 2.4; AF4-AF9 inh: -1.4; Ecoli rRNA inh: 4.3; Beta apoptosis: -1.0; Calb FLC: 4.9; Ecoli rRNA inh OD600: 12.5; Ecoli rRNA inh RFP: 0.4

How did Cc1ccc(NS(=O)(=O)c2cccc3nsnc23)cc1[N+](=O)[O-] do in these assays?
FGF22 binding: inactive; RanGTP-Impb inh: -0.3; ALR inh: -9.3; T cruzi repl: 5.4; AF4-AF9 inh: -2.9; Ecoli rRNA inh: 17.2; Beta apoptosis: -5.4; Calb FLC: 4.2; Ecoli rRNA inh OD600: 7.5; Ecoli rRNA inh RFP: -3.6

How did C/C(=N\NC(=O)c1ccc(OC2OCCOC2Oc2ccc(C(=O)N/N=C(\C)c3ccncc3)cc2)cc1)c1ccncc1 (stereo not drawn) do in these assays?
FGF22 binding: inactive; RanGTP-Impb inh: -7.5; ALR inh: -11.0; T cruzi repl: 12.9; AF4-AF9 inh: -26.0; Ecoli rRNA inh: 2.6; Beta apoptosis: -21.9; Calb FLC: -12.3; Ecoli rRNA inh OD600: 2.3; Ecoli rRNA inh RFP: 12.1

Results for Cc1nnsc1Sc1ccccc1C(=O)O ?
FGF22 binding: inactive; RanGTP-Impb inh: 0.0; ALR inh: 3.6; T cruzi repl: -0.7; AF4-AF9 inh: 1.6; Ecoli rRNA inh: 11.1; Beta apoptosis: 3.0; Calb FLC: -4.3; Ecoli rRNA inh OD600: 3.3; Ecoli rRNA inh RFP: 1.9

Results for COCCN(C(=O)Cc1cccs1)C(C(=O)NCc1ccc(OC)cc1)c1ccc(C)cc1 (stereo not drawn) ?
RanGTP-Impb inh: -2.0; ALR inh: 3.1; T cruzi repl: 14.2; Beta apoptosis: -5.4; Calb FLC: 5.4

Results for CC(C)(C)c1ccc(OCCC(=O)Nc2cccc(S(=O)(=O)N3CCOCC3)c2)cc1 ?
FGF22 binding: inactive; RanGTP-Impb inh: 2.0; ALR inh: -0.7; T cruzi repl: 23.3; AF4-AF9 inh: -2.0; Ecoli rRNA inh: -1.6; Beta apoptosis: -1.0; Calb FLC: 0.7; Ecoli rRNA inh OD600: -37.0; Ecoli rRNA inh RFP: -5.7

What do the screens show for `CC(=O)Oc1cccc(N2C(=O)c3cccc4c([N+](=O)[O-])ccc(c34)C2=O)c1`?
FGF22 binding: inactive; RanGTP-Impb inh: -4.3; ALR inh: 72.0; T cruzi repl: 17.4; AF4-AF9 inh: -1.7; Ecoli rRNA inh: 77.7; Calb FLC: 32.6; Ecoli rRNA inh OD600: 4.1; Ecoli rRNA inh RFP: -9.5

What do the screens show for `CCCCn1c(-c2ccc(OC(F)F)cc2)nc2c1c(=O)[nH]c(=O)n2CC(C)C`?
FGF22 binding: inactive; RanGTP-Impb inh: -2.7; ALR inh: 0.8; T cruzi repl: 46.0; AF4-AF9 inh: -1.7; Ecoli rRNA inh: 3.0; Beta apoptosis: 1.0; Calb FLC: 3.3; Ecoli rRNA inh OD600: 8.6; Ecoli rRNA inh RFP: 0.1

Results for O=C(C1=C(O)C(=O)N(CCN2CCOCC2)C1c1ccncc1)c1ccco1 (stereo not drawn) ?
RanGTP-Impb inh: 1.2; ALR inh: -11.5; T cruzi repl: -3.5; Beta apoptosis: -10.4; Calb FLC: -5.6

What do the screens show for `Cc1ccn2c(C(=O)N/N=C\c3ccc4c(c3)OCO4)c(C)nc2c1`?
RanGTP-Impb inh: 1.0; ALR inh: 4.9; T cruzi repl: -23.0; Beta apoptosis: -10.8; Calb FLC: -15.8

Assay outcomes: PubChem BioAssay, Broad Institute
